ALR H2O2 inh: inhibitors of human ALR sulfhydryl oxidase, primary screen, biochemical, H2O2 detection, HRP-luminol luminescence, single point | inhibition, % (no concentration beside the values) | purified ALR, DTT oxidation | 290,000 tested, 3.8% active;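 active = mean and each replicate at 75% or more; inconclusive = only one of the two met; inactive = neither met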;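 note: stock transfer was 7.5 nL into about 7.5 µL; 0% = neutral wells and 100% = wells with inactivated enzyme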
Target sequence (P55789 whole entry, looked up): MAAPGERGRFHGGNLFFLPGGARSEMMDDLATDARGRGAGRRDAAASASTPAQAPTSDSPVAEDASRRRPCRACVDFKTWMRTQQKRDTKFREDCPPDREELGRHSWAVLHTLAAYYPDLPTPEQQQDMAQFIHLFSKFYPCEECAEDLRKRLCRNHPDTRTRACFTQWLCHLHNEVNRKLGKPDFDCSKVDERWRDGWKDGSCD
Calb FLC: C. albicans growth inhibition with fluconazole, primary screen, CaCi-2 strain, Alamar Blue fluorescence; AID 1979, 2009; growth inhibition, % (no concentration beside the values); 300,000 tested, 0.57% active; C. albicans CaCi-2 (fluconazole-resistant clinical isolate) + fluconazole, 48 h;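 active = most replicates above 75%; inconclusive = exactly half above 75%; inactive = most below 75%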;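 note: all wells also contain fluconazole at 8 µg/ml as a sub-toxic cotreatment; 0% = median of DMSO wells and 100% = median of geldanamycin control wells; wells of about 8 µL received 7.5 nL stock; the first replicate is given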
MLL AF4-AF9 inh: inhibitors of AF4 peptide binding to AF9, primary screen, biochemical, AlphaScreen, biotin-AF4 peptide, FLAG-AF9, single point. 350,000 tested, 0.47% active. inhibition, % at 10 µM. Protein AF-9 (Homo sapiens), P42568;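 active = every replicate reaching a set inhibition limit, whatever the replicate mean, cut at about 25% in these data; inconclusive = mean inhibition reaches that limit but some replicates miss it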;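 note: 0% = plate neutral control median and 100% = total signal loss; the record names both 10 and 1 µM as test concentration; the first replicate is given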
Target sequence (P42568 whole entry, looked up): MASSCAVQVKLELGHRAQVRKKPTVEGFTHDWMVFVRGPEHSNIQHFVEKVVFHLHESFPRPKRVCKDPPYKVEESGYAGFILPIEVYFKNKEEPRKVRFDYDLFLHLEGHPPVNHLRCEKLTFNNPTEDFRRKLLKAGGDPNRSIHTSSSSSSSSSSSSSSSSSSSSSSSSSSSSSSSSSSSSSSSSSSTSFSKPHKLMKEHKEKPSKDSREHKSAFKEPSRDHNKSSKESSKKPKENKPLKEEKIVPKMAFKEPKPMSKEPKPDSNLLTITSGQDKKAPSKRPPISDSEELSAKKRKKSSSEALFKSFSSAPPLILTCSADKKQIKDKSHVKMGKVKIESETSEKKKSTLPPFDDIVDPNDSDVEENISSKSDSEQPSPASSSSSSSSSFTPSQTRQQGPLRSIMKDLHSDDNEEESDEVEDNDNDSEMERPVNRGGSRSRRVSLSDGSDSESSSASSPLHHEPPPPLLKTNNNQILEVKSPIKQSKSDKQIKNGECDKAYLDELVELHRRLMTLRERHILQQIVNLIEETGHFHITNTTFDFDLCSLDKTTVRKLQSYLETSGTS
Beta apoptosis: inhibitors of cytokine-induced beta cell apoptosis, primary screen, luminescence; INS-1E cytokine-induced death, ATP luminescence, 48 h; percent of positive-control rescue, neutral wells zero; protection from apoptosis, % (no concentration beside the values); 300,000 tested, 0.8% active; AID 435005, 2010;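 active = all replicates at 75% or more, or half of them and the mean; inconclusive = half reach 75% but not the mean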;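 note: 0% = cytokine-treated negative control wells and 100% = positive control rescue; higher means more ATP so stronger rescue from cytokine killing; wells of about 40 µL received 100 nL stock; the first replicate is given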
RanGTP-Imp inh: inhibitors of RanGTP-importin-beta interaction, primary screen, biochemical, FRET, CFP-Ran, YFP-importin-beta, homogeneous | 300,000 tested, 1.1% active | inhibition, % (no concentration beside the values) | cell-free CFP-Ran/YFP-importin-beta FRET ratio;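 active = most replicates above 15%; inconclusive = exactly half above 15%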;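 note: 0% = DMSO wells and 100% = Ran loaded with GDP instead of GTP; wells of about 40 µL received 100 nL stock; the first replicate is given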
Ecoli rRNA inh: reduced GFP signal of wild-type E. coli, primary screen, bacterial rRNA inhibitor project, GFP/RFP fluorescence, OD600, single point; E. coli WT GFP vs humanized-ribosome RFP mutants, 24 h; hits give low values; DMSO median 0, no signal -100; GFP signal change (wild-type ribosome), % (no concentration beside the values); 350,000 tested, 1.6% active; AID 720706, 2013;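 active = significant combined selectivity score with lowered wild-type GFP, culture density cut under 30%, mutant RFP and density less affected; inactive = any of these conditions unmet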; note: one replicate is shown; some compounds called inactive have numbers as strong as hits
FGF22 binding: binders of human FGF22 protein, primary screen, FGF22 synaptogenesis inhibitor project, biophysical, thermal shift, single point | Fibroblast growth factor 22 (Homo sapiens), Q9HCT0 | recombinant FGF22 thermal shift, SYPRO orange fluorescence; percent of sucrose octasulfate shift, DMSO zero | calls only at 9.99 µM | 340,000 tested, 1.5% active;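 active = melting point raised past a set limit in the mean and every replicate; inconclusive = no clear call; three in four hits are not shown here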
Target sequence (Q9HCT0 whole entry, looked up): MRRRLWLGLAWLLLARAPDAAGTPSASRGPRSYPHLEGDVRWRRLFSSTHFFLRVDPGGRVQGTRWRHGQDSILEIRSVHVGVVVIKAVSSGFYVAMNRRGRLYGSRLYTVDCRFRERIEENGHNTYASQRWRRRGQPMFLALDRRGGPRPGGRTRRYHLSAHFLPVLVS
T cruzi repl: inhibitors of intracellular T. cruzi growth, primary screen, luminescence, NIH3T3 host cells; T. cruzi beta-gal in NIH3T3, 90 h; inhibition, % (concentration not given with the values); 300,000 tested, 1.4% active; AID 1885, 2009;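 active = mean inhibition across valid replicates above about 55%, limit read from the data; inconclusive = mean below that limit but half or more replicates reach it; inactive = mean below it, under half of replicates reach it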;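 note: signal also drops with host cell toxicity which is not excluded here; 0% = plate median of DMSO wells and 100% = zero luminescence signal; higher percent means less beta-gal luminescence so fewer parasites; stock transfer was 50 nL into about 50 µL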
Ecoli rRNA inh OD600: further read-out of Ecoli rRNA inh, marked with its call; OD600 change, %; measured here: OD600 growth;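 optical density of the mix in the first replicate; 0 = DMSO median and -100 = no signal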
Ecoli rRNA inh RFP: second read-out of Ecoli rRNA inh, no call of its own (marks repeat the call); RFP signal change, %; measured here: RFP humanized mutant strains;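 first replicate; 0 = DMSO median and -100 = no signal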
Active calls of the source: *; i = inactive; ? = inconclusive; nt = no result given; & = joins results of further samples. Some of the compounds tested; the hit share may differ from the screen's.

SMILES	ALR H2O2 inh	Calb FLC	MLL AF4-AF9 inh	Beta apoptosis	RanGTP-Imp inh	Ecoli rRNA inh	Ecoli rRNA inh OD600	Ecoli rRNA inh RFP	FGF22 binding	T cruzi repl
CC(C)n1c(=O)c(C=Nc2ccc(Cl)cc2)c(O)n(Cc2ccco2)c1=O	-2	-15	3.7	1	-2.9	11	7	5.2	i	-3
O=c1c2ccccc2nc(-c2ccco2)n1-c1ccc(Br)cn1	10	5	nt	-2	1.5	nt	nt	nt	nt	-10
CC12CNCC(C)(CNC1)C2O (configuration not stated)	0	1	10	-2	6.3	8	-2	-4.2	i	-15
CCc1ccc(-n2c(O)c(C(C)=O)c(=O)[nH]c2=O)cc1 (tested in a mixture with another compound)	2	10	-5.3	-6	1.7	0	9	0.0	i	-10
Cc1ccc2nc(C)n(-c3ccc(F)cc3)c(=O)c2c1	-3	9	-1.9	6	8.5	3	5	0.0	nt	-21
C=CCN(c1ccc(C(=O)N(CC)CC)cc1)S(C)(=O)=O	-7	-6	nt	3	-0.1	nt	nt	nt	nt	-6
Cn1cccc1/C=C1/C(=O)NC(=O)N(Cc2ccccc2)C1=O	5	-10	-9.4	4	-1.2	6	9	4.2	i	-1
CC(=O)Nc1ccc(OC(=O)c2ccccc2N)cc1	-19	0	nt	-4	3.8	nt	nt	nt	nt	8
CCC(=NCCOc1ccc(Cl)cc1)c1c(O)n(C)c(=O)n(C)c1=O	-4	15	nt	19	?	nt	nt	nt	nt	22
Cc1nonc1OCCNCCNc1ccc([N+](=O)[O-])c2cccnc12	-9	5	8.2	-9	1.3	-3	-6	2.4	i	48
CC[N+]1(C)CCCC(OC(=O)C(O)(c2ccccc2)c2ccccc2)C1 (configuration not stated)	-7	nt	-1.0&-1.2	0	-1.4	9	12	3.3	i	-7
COC(=O)C(=O)N1CC2(C)CNCC(C)(C1)C2=O	1	14	0.5	-3	3.9	16	5	-0.5	i	2
CC12CN3CC(C)(CN(C1)C3c1cccs1)C2 (configuration not stated)	0	?	nt	3	1.4	nt	nt	nt	nt	-13
CCN1c2nc3c(C)cccn3c(=O)c2CC2(C(=O)N(C)C(=O)N(C)C2=O)C1C (configuration not stated)	nt	-5	nt	-1	3.4	nt	nt	nt	nt	-8
CN(C(=O)Oc1ccc(Cl)c2cccnc12)c1ccccc1	1	0	nt	-2	-1.7	nt	nt	nt	nt	14
O=C(c1cccs1)C1CN2CCC1CC2 (configuration not stated)	nt	-26	nt	0	-2.1	nt	nt	nt	nt	11
Cc1cc(Oc2cc(NN3CCCCC3)c([N+](=O)[O-])cc2[N+](=O)[O-])ccc1[N+](=O)[O-]	8	12	4.7	13	0.9	0	9	-1.8	i	12
CC(=O)N1CC(=O)Nc2ccc(F)cc2C1c1ccccc1 (configuration not stated)	-2	0	-0.3	-3	-1.7	19	9	1.8	i	-16
CCC1(CC)C(=O)NC(=NCCc2c[nH]c3ccccc23)NC1=O	0	2	nt	-1	0.5	nt	nt	nt	nt	-4
COc1ccc(CNCCc2c[nH]c3ccccc23)c(OC)c1C	13	nt	15	8	-6.5	-10	-15	1.8	i	24
Cn1c(O)c(N=Nc2ccc(S(=O)(=O)N3CCOCC3)cc2)c(=O)n(C)c1=O	nt	-3	nt	6	-1.3	nt	nt	nt	nt	-3
COc1ccccc1CN1CCCC(C(=O)c2ccccc2OC)C1 (configuration not stated)	nt	-4	2.7	4	4.9	3	6	-1.7	i	18
Cc1cc(N(CCCl)CCCl)ccc1/C=N/NC(=O)c1ccco1	34	-25	nt	nt	-1.4	nt	nt	nt	nt	-5
CN(C)c1ccc(C=C2C(=O)NC(=O)NC2=O)cc1[N+](=O)[O-]	60	37	-0.4	-4	-2.2	10	9	0.4	i	-1
CCOP(=S)(OCC)Oc1nc(Cl)c(Cl)cc1Cl	4	nt	nt	3	nt	-8	-3	4.9	i	nt
The listing continues.
SMILES	ALR H2O2 inh	Calb FLC	MLL AF4-AF9 inh	Beta apoptosis	RanGTP-Imp inh	Ecoli rRNA inh	Ecoli rRNA inh OD600	Ecoli rRNA inh RFP	FGF22 binding	T cruzi repl
O=C(c1ccc(N2CCCCC2)c([N+](=O)[O-])c1)N1CCC2(CC1)OCCO2	-5	9	1.3	-6	-0.7	-14	-8	-2.8	nt	-6
C[C@]12CCC3C(CC[C@H]4C[C@H](O)CC[C@]34C)C1CC(=O)[C@@H]2O (some centres not stated)	-1	nt	0.8	-6	nt	-39	-41	-2.6	i	nt
CN1C2CCC1CC(OC(c1ccccc1)c1ccccc1N)C2 (configuration not stated)	-34	nt	5.6	-5	0.4	nt	nt	nt	i	-3
CCC1CN(C)CCC1(OC(C)=O)c1ccccc1 (configuration not stated)	-14	7	nt	-4	0.4	nt	nt	nt	nt	-5
Cc1cc(Cl)ccc1C(=O)C1CCCN(C2CCSCC2)C1 (configuration not stated)	3	-47	11	nt	-4.7	-10	-14	-7.0	i	42
COC(=O)C1=C(c2ccc(C(C)=O)cc2)C[C@@H]2CC[C@H]1N2C(=O)NC1CC1	-1	nt	-1.5	0	nt	28	12	-4.6	i	nt
CC12CN3CC(C)(CN(C1)P3(=O)Oc1ccccc1)C2=O (configuration not stated)	-5	0	nt	0	2.4	3	6	-2.3	nt	-9
CCOc1ccc(-n2c(O)c(C=Nc3ccc(NC(C)=O)cc3)c(=O)[nH]c2=O)cc1	-22	0	-0.7	3	1.1	5	-7	-2.3	i	-14
O=[N+]([O-])c1ccc(Cl)c([N+](=O)[O-])c1	5	nt	-2.2	14	nt	17	14	-1.7	i	nt
O=C(OCC(=O)c1ccc([N+](=O)[O-])cc1)/C(=C\c1ccc(Cl)cc1)NC(=O)c1ccccc1	-2	-2	nt	nt	0.8	nt	nt	nt	nt	-5
CCCCC/C(=N/O)c1c(C)[nH]c2ccccc12	99*	-2	-3.1	-7	6.3	-21*	-9.8*	3.2*	i	2
Cc1c(C(c2ccc(Br)cc2)c2c(O)c3ccccc3oc2=O)c(=O)n(-c2ccccc2)n1C (configuration not stated)	-5	3	1.5	-5	3.4	5	3	0.5	i	-1
COC(=O)C1=C(c2ccc(-c3ccccc3)c(F)c2)C[C@@H]2CC[C@H]1N2C(=O)NC1Cc2ccccc2C1	0	nt	1.6	5	nt	4	4	-7.2	i	nt
COC(=O)C(NC(=S)N1CC2C[C@@H](C1)Cn1c2cccc1=O)C(C)C (some centres not stated)	nt	2	-3.2	nt	-1.3	12	12	4.0	i	-11
O=c1[nH]c(=O)n(C2CCCCC2)c(O)c1C=Nc1ccc(N2CCOCC2)cc1	-5	-6	1.7	2	1.2	5	12	0.9	i	-14
CCN(CC)CCCN=Cc1c(O)n(-c2ccccc2F)c(=O)[nH]c1=O	-3	-2	nt	-5	1.3	nt	nt	nt	nt	-13
Cn1c(O)c(C(=Nc2ccc(F)cc2)c2ccccc2Cl)c(=O)n(C)c1=O	-1	-3	-0.9	-13	-0.4	17	19	1.9	nt	8
COC(=O)C1=C(c2ccc(OCc3ccccc3)cc2)C[C@@H]2CC[C@H]1N2C(=O)NCc1ccccc1	-3	nt	0.8	5	nt	-13	-13	3.4	i	nt
Cc1cccc(-n2c(-c3ccccc3)nc3ccccc3c2=O)n1	-17	-9	-1.4	-4	-2.6	-1	-5	1.1	nt	-1
Cc1ccc(-c2nn(CCC#N)cc2C(=O)O)cc1C	-22	-14	-1.0	-2	2.7	14	4	-2.2	i	-14
Cc1ccc(N(C)C(=O)Oc2cccc3ccc(C)nc23)cc1	5	-8	nt	-7	1.4	nt	nt	nt	nt	-1
CCC(=NCCO)c1c(O)n(-c2ccc(Cl)cc2)c(=O)[nH]c1=O	-5	3	nt	3	-0.4	17	7	-0.2	nt	-8
O=c1[nH]c(O)c(Cc2ccc3c(c2)OCO3)c(=O)[nH]1	-3	1	6.6	-7	-2.3	-11	3	17	i	-4
CC(OC(=O)c1cn(C)c2ccccc12)C(=O)N1CCCC1 (configuration not stated)	-1	nt	-0.7	-5	nt	6	6	0.5	i	nt
COc1ccc(-c2nn(CCC#N)cc2C(=O)O)cc1	-1	-12	-3.1	1	?	2	6	2.3	i	-17
New compounds follow:
SMILES	ALR H2O2 inh	Calb FLC	MLL AF4-AF9 inh	Beta apoptosis	RanGTP-Imp inh	Ecoli rRNA inh	Ecoli rRNA inh OD600	Ecoli rRNA inh RFP	FGF22 binding	T cruzi repl
Cc1ccccc1NC(=O)NCCN1CC1	-9	4	-0.7	-13	5.3	16	7	8.2	i	8
COc1ccc(Cc2c(O)[nH]c(=S)[nH]c2=O)cc1	-1	10	-21	-6	0.8	7	9	0.7	i	-5
C=Cn1ccnc1P(O)(=S)c1nc(C)c(CCOC(C)=O)s1 (configuration not stated)	-12	21	-0.6	2	-0.3	19	13	3.4	i	-14
CCC(C)n1c(O)c(C=NCCc2ccccc2)c(=O)[nH]c1=S (configuration not stated)	nt	7	2.9	-6	3.4	-7	-17	0.4	i	1
CCN1CCC2(CC1)NC(CO)(CO)CO2	-11	-1	nt	3	-1.0	nt	nt	nt	nt	23
Cc1c(C(=O)N2CCC3(CC2)OCCO3)oc2ccc(S(=O)(=O)N3CCOCC3)cc12	nt	-10	nt	-4	6.5	nt	nt	nt	nt	4
Cc1nc2ccccc2c(=O)n1-c1ccccc1[N+](=O)[O-]	-8	3	-0.4	-9	0.8	2	0	-2.0	i	-23
CN1CCN(/N=C/c2c(O)n(C)c(=O)n(C)c2=O)CC1	12	-1	-17	0	2.3	0	11	0.5	i	34
COc1ccc(CN2C(=O)NC(=O)/C(=C\c3cccc(OC)c3OC)C2=O)cc1	-2	-7	-1.6	nt	-1.9	11	7	-0.5	i	-13
Fc1ccc(CNC2CN3CCC2CC3)cc1 (configuration not stated)	-3	-9	3.4	-2	1.5	3	7	1.4	i	1
Cc1ccc(N2C(=O)CC(=O)NC2=O)c(C)c1	-2	3	-2.6	0	4.1	11	12	-0.1	i	-11
CCCCC(=O)N/N=C/c1c(O)n(Cc2ccco2)c(=O)[nH]c1=O	8	-2	nt	4	3.4	nt	nt	nt	nt	6
CC(=O)OC1(c2ccccc2)CCN(C2CCCCC2)CC1C (configuration not stated)	-2	3	-4.4	3	-2.0	1	3	-1.1	i	15
N#CCCn1cc(C(=O)Nc2ccccc2Cl)c(-c2ccc(F)cc2)n1	2	29	-6.7	0	?	4	7	-0.7	i	-2
C[C@]12CCC3C(CC[C@H]4C[C@@H](O)CC[C@]34C)[C@H]1C=CC2=O (some centres not stated)	-3	nt	-1.7	-1	nt	nt	nt	nt	i	nt
O=C(c1ccccc1)c1ccccc1N=Cc1c(O)[nH]c(=O)[nH]c1=O	7	-13	-0.8	3	3.6	13	10	1.9	nt	-4
CN(C)P(=S)(Nc1ccccc1)C(Cl)(Cl)Cl (configuration not stated)	-3	-1	-1.6	-6	1.1	-33	-66	-8.5	i	-7

High-throughput results: PubChem BioAssay, Broad Institute
